Sfp PPTase inh: inhibitors of Bacillus subtilis Sfp phosphopantetheinyl transferase; Q9F4F7; Biochemical Sfp PPTase activity, qHTS; 3.5% of 310,000 active; Potency, µM, for inactives: max response, negative = inhibition, hits mostly inhibitors; active = well fitted inhibition curve with a large enough effect; inconclusive = small, poorly fitted or top-dose-only effect, or another doubt; inactive = no such curve, though single readings can be large or run the other way;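 note: the enzyme is Sfp with the accession as filed and its product quenches rhodamine fluorescence; potency is the fitted concentration of half-maximal effect; 0% = enzyme reaction without inhibitor and -100% = no enzyme wells; top concentration of the series not given in the record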
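Fluorescence-quenching assay with 15 nM Sfp, 5 uM rhodamine-CoA and 12.5 uM BHQ-2-labelled ybbR peptide in pH 7.6 Hepes/MgCl2 buffer. Enzyme was pre-incubated with compound for 15 min at room temperature. Rate was taken from the 30-min fluorescence change (525/598 nm).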
Menin MLL FP FL: displaces fluorescein MLL peptide from human menin | Fluorescence polarization, fluorescein-MLL peptide displacement from menin | FP activity change, % at 61.4 µM | 290,000 tested, under 10 active | AID 1766; inconclusive = falling polarisation curve, or a change in total fluorescence; inactive = total fluorescence flat and polarisation flat or rising; no compound was filed as active; the % refers to the polarisation; negative = inhibition;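 note: % of control where 0% means no effect; inhibitors lower the polarisation; unlabelled MLL peptide was the positive control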
Starred values were filed as active, the others as inactive; ? = inconclusive; & = joins results of further samples; ! = repeats disagree; [ ] = dose if it differs, or a comment.

# | structure | Sfp PPTase inh | Menin MLL FP FL
1 | C=C(C(C)=O)C(O)c1ccco1 (stereo unspecified) | ? | ?
2 | CN(Cc1ccccc1)C(=O)[C@H](Cc1ccc2ccccc2c1)NC(=O)[C@@H]1C[C@@H](O)CN1C(=O)c1cn(C)c2ccccc12 | -6.6% | 0.1
3 | COc1ccc(C2c3cc(OC)c(OC)cc3Cc3c4cc(OC)c(OC)cc4cc[n+]32)cc1OC (stereo unspecified) | -15.1% | ?
4 | COc1cccc([C@@H]2Oc3ccc(OC)cc3/C(=N/OC[C@@H](C)[C@H](OCc3ccccc3)C(C)C)[C@@H]2O)c1 | 19.7% | -0.5[11.7 µM]
5 | CC(=O)OC1CC2C(C)(C)C(=O)[C@@H]3OC3[C@@]2(C)C2CC[C@]3(C)C(=CC(=O)OC3c3ccoc3)[C@]12C (stereo partly specified) | 3.0% | 2.4
6 | CC(C)C[C@@H](CC(=O)N[C@@H](CCC(=O)O)CC(=O)O)NC(=O)[C@@H]1CNCC[C@H]1NC(=O)C[C@H](CCCN)NC(=O)C[C@H](Cc1c[nH]c2ccccc12)NC(=O)[C@@H]1CCCC[C@H]1N | -5.1% | 0.8
7 | Clc1ccccc1-c1nccc(-n2ccnc2)n1 | -27.3% | 4.1
8 | C=C/C(=C\C)C[C@@H](CC(=O)N[C@@H](CCC(=O)O)CC(=O)O)NC(=O)[C@@H]1CNCC[C@H]1NC(=O)C[C@@H](NC(=O)C[C@H](Cc1ccccc1)NC(=O)[C@@H]1CCCC[C@H]1N)C(C)C | -24.1% | -2.2
9 | NCC1CCCCC1CC(=O)O (stereo unspecified) | -10.0% | 0.2
10 | CCCCCCCCCCCCCCCCO | 10.0%&17.7% | -1.0&-0.5

# | structure | Sfp PPTase inh | Menin MLL FP FL
11 | N#Cc1ccc(CN2CC3(CCN(C(=O)c4cc(C(F)(F)F)cc(C(F)(F)F)c4)CC3)C2)cc1 | 10.8% | -5.4
12 | CN(C)CCn1nnnc1SCC1=C(C(=O)O)N2C(=O)[C@@H](NC(=O)Cc3csc(N)n3)[C@@H]2SC1 | ? | -0.6[24.8 µM]
13 | O=c1cc(-c2ccc(O)cc2)oc2cc(OC3OC(CO)C(O)C(O)C3O)c(C3OC(CO)C(O)C(O)C3O)c(O)c12 (stereo unspecified) | -5.1% | -1.7
14 | C[C@@H]1CCC[C@H](C)N1 | 10.3% | -1.2[24.8 µM]
15 | CC1(C)O[C@H]2C[C@@H]3[C@H]4CCC5=CC(=O)CC[C@@]5(C)[C@]4(F)[C@@H](O)C[C@@]3(C)[C@@]2(C(=O)CCl)O1 | 14.5% | -0.5[24.8 µM]
16 | O=C(O)c1ccc(NS(=O)(=O)c2ccsc2C(=O)O)c(O)c1 | ? | 0.1
17 | COC(=O)C1=C(C(=O)OC)[C@@H]2N(C)c3ccccc3[C@@]23C[C@@H](CO)N(C(=O)c2ccco2)C3=N1 | 10.4% | -0.6[11.7 µM]
18 | COc1ccc2c(c1)O[C@@H](c1ccc3c(c1)OCO3)[C@H](OC(=O)N[C@H](C)C1CCCCC1)C2=O | -13.2% | -4.0
19 | c1cncc(-c2nc(NCCN3CCOCC3)c3ccccc3n2)c1 | 12.9% | -4.2
20 | COc1ccc2c(c1)C(=O)[C@@H](OC(=O)NS(=O)(=O)c1ccc(C)cc1)[C@H](c1ccc(OC)c(Br)c1)O2 | -5.0% | 5.1

# | structure | Sfp PPTase inh | Menin MLL FP FL
21 | COc1ccc2[nH]cc(CCNc3ncncc3-c3cccc(NS(C)(=O)=O)c3)c2c1 | ? | 2.0
22 | COC(=O)[C@@]1(Cc2ccc(F)cc2)[C@H]2c3cc(C(=O)N(C)C)n(Cc4cccc5ccccc45)c3C[C@H]2CN1C(=O)c1ccccc1 | 9.5% | 1.3
23 | CC1(C)C(=O)C(c2ccccc2)=C2CN3C(=O)N(CCc4ccccc4)C(=O)C3(Cc3ccc(C(F)(F)F)cc3)C=C21 (stereo unspecified) | 29.0% | -4.0
24 | O=C(Nc1ccccc1)N1CC[C@@]2(CCCN(C(=O)c3ccncc3)C2)C1 | 10.6% | -0.7
25 | COC(=O)c1ccc(C(NC(=O)OCc2ccccc2)/C(=C/[C@@H](C)C(=O)NC2CCCCC2)c2cccnc2)cc1 (stereo partly specified) | 0.8% | 3.8
26 | CN(C)C(=O)c1ccc(-c2nc(N(C)Cc3ccco3)c3ccccc3n2)cc1 | -8.7% | -1.6
27 | CN(C)C(=O)c1ccc(-c2nc(NCc3cccs3)c3ccccc3n2)cc1 | -25.4% | 6.1
28 | Nc1ccccc1C(=O)CC(N)C(=O)O (stereo unspecified) | 100µM*! | -0.3&-8.6
29 | COC(=O)C1=C[C@@H](C(=O)OC)[C@@H]2C3=C(C(=O)[C@@]2(CC(C)C)NC(=O)c2ccccc2)[C@H](C)n2c(=O)n(-c4ccccc4)c(=O)n2[C@@H]3C1 | 12.3% | 15.5
30 | Cc1cccc(CNc2ncnc3ccc(-c4ccccc4C#N)cc23)c1 | 15.3% | -0.4

# | structure | Sfp PPTase inh | Menin MLL FP FL
31 | COc1c2c(cc3occ(-c4ccc5c(c4)OCO5)c(=O)c13)OC(C)(C)C=C2 | 39.8µM* | 4.0
32 | COc1ccccc1-c1nc(NCc2ccccc2)c2ccccc2n1 | ? | -0.3
33 | CCNc1ncc2ncc(=O)n(C)c2n1 | 10.2% | -0.1
34 | CC(C)=CCC/C(C)=C/CO/N=C1/C[C@@H](O)[C@@H](O)[C@@H]2[C@@H]3C(=O)N(c4cccc(Oc5ccccc5)c4)C(=O)[C@H]3CC[C@H]12 | 11.8% | -5.5[11.7 µM]
35 | COc1ccc(-c2oc3cc(O[C@@H]4OC(CO)C(O)C(O)C4O)c(OC)c(O)c3c(=O)c2OC)cc1O (stereo partly specified) | -0.1% | 2.2
36 | O=C(c1ccncc1)N1CCC2(CC1)CN(c1ccncc1)C2 | 1.8% | -4.8
37 | N[C@H](Cc1cc(I)c(Oc2cc(I)c(O)c(I)c2)c(I)c1)C(=O)O | -12.3% | 4.3[24.8 µM]
38 | NC(N)=NCCCCN=C(N)N | -14.7%&11.8%&-23.4%&23.3% | 1.1
39 | COC(=O)C1=C2N(Cc3ccccc3)C(C)=C(C(=O)OC)C(c3ccccc3)N2C(=O)[C@](O)(C(=O)OC)C1 (stereo partly specified) | 0.4%&8.9% | -1.5&-5.3[11.7 µM]
40 | CC1CCC2C(=O)N3CCCC3C(=O)N2C1c1ccc(Br)cc1 (stereo unspecified) | ? | 2.0&1.3[11.7 µM]

Some of these compounds in order of length of the SMILES, low to high:
# | structure | Sfp PPTase inh | Menin MLL FP FL
33 | CCNc1ncc2ncc(=O)n(C)c2n1 | 10.2% | -0.1
32 | COc1ccccc1-c1nc(NCc2ccccc2)c2ccccc2n1 | ? | -0.3
37 | N[C@H](Cc1cc(I)c(Oc2cc(I)c(O)c(I)c2)c(I)c1)C(=O)O | -12.3% | 4.3[24.8 µM]

(continued)
# | structure | Sfp PPTase inh | Menin MLL FP FL
41 | COc1ccc(Oc2ncc3nc(-c4cn(C)c5ccccc45)c(=O)n(C4CC4)c3n2)cc1 | -1.9% | -3.4
42 | O=C1CCC=C1C(O)c1ccccc1 (stereo unspecified) | -7.6%&-18.9% | -0.9&1.1
43 | COc1ccc(C(=O)N2CCC3(CCN(Cc4nccs4)CC3)CC2)cc1 | 10.1% | 0.7
44 | O=C(c1ccncc1)N1CCC2(CC1)CCN(c1ccccc1)CC2 | -2.0% | 5.2
45 | CC(=O)Oc1cc(C(F)(F)F)ccc1C(=O)O | 18.9% | 0.5[24.8 µM]
46 | CC1OC(OCC2OC(Oc3c(-c4ccc(O)c(O)c4)oc4cc(O)cc(O)c4c3=O)C(O)C(O)C2O)[C@@H](O)C(O)C1O (stereo partly specified) | -24.1% | 0.4
47 | COc1ccccc1CNc1nc(-c2ccccc2CN(C)C)nc2ccccc12 | -2.4% | -5.4
48 | Cn1c(=O)n2n(c1=O)[C@H]1[C@H](O)[C@H]3O[C@H]3C(=O)[C@H]1CC2 | -1.8% | -5.4[11.7 µM]
49 | Cc1ccc(/C=C2/CNC/C(=C\c3ccc(C)cc3)C2=O)cc1 | -4.7% | -1.7
50 | C=CCC(O)(/C=C/c1ccccc1)c1ccccc1 (stereo unspecified) | -19.0% | 3.4

# | structure | Sfp PPTase inh | Menin MLL FP FL
51 | CCCCCCCCCc1ccc(OCCOCCOCCOCCOCCOCCOCCOCCOCCO)cc1 | -26.0% | -3.0
52 | CC(CC(C)(C)C)CP(=O)(O)CC(C)CC(C)(C)C (stereo unspecified) | 11.4% | -1.9
53 | CCOC(=O)/C=C/CCC/C=C/C(=O)c1ccccc1 | -21.4% | 0.9
54 | c1ccc(CNc2ccnc(-c3ccoc3)n2)cc1 | -23.6% | ?
55 | CC(=O)N1CCC2(CCN(Cc3nccs3)CC2)CC1 | 27.2% | 2.1
56 | COc1ccccc1CN1CCC2(CC1)CCN(S(C)(=O)=O)CC2 | 16.1% | 0.4
57 | COc1ccc(OC)c(C2=Nn3c(nnc3-c3cc(OC)ccc3OC)SC2)c1 | 3.2% | ?
58 | O=C(NCCN1CCOCC1)C1(C(F)(F)F)C/C(=C/CCO)CCCO1 (stereo unspecified) | 6.1% | 0.2
59 | COc1ccc(-n2c(=O)c(CCc3ccccc3)nc3cncnc32)cc1 | 9.6% | -4.2
60 | FC(F)(F)c1ccccc1-c1nccc(NCc2cccs2)n1 | -10.9% | 0.4

# | structure | Sfp PPTase inh | Menin MLL FP FL
61 | CCCCCCN(CCCCCC)C(=O)Cc1c(-c2ccc(Cl)cc2)[nH]c2ccc(Cl)cc12 | 15.9%&16.8% | 3.8
62 | CC(C)C[C@@H](CC(=O)N[C@H](CC(=O)N[C@@H]1CCCC[C@H]1C(=O)N[C@H](CC(=O)N[C@@H](CCC(=O)O)CC(=O)O)Cc1ccccc1)C(C)C)NC(=O)[C@@H]1CNCC[C@H]1N | -3.4% | -3.3
63 | CCC1=C(OC(=O)N(CC)CC)N2C(=O)OC(=NCCOC)[C@]2(C)[C@H]2C1=CC[C@H]1C(=O)N(C)C(=O)[C@H]12 | 12.1% | 0.9
64 | O=C1C2C(c3ccccc3)CC=CC2C(c2ccc(C(F)(F)F)cc2)N1Cc1ccccc1 (stereo unspecified) | -7.3% | 0.9
65 | CO[C@@H]1/C=C\CC(=O)N[C@@H](C)C(=O)OC[C@@H](OC)[C@H](C)/C=C\CC(=O)OC[C@H]1C | -18.0% | -0.8[11.7 µM]
66 | CC[C@H](C)[C@H](NC(=O)[C@H](Cc1ccccc1)NC(=O)[C@H](CC(C)C)NC(=O)[C@H](CCSC)NC(=O)[C@H](CCC(=O)O)NC(=O)[C@H](CCC(=O)O)NC(=O)[C@H](CC(=O)O)NC(=O)[C@H](CO)NC(=O)[C@@H]1CCCN1C(=O)[C@H](CCCCN)NC(=O)[C@@H](N)[C@@H](C)O)C(=O)N[C@@H](Cc1ccc(O)cc1)C(=O)NCC(=O)N[C@@H](Cc1cnc[nH]1)C(=O)N[C@@H](Cc1ccc(O)cc1)C(=O)N[C@@H](CCCCN)C(=O)N[C@@H](CCC(N)=O)C(=O)N[C@@H](C)C(=O)N[C@H](C(=O)N[C@H](C(=O)NCC(=O)N[C@@H](CC(=O)O)C(=O)N[C@H](C(=O)N[C@@H](CC(N)=O)C(=O)N[C@H](C(=O)N[C@@H](CCC(=O)O)C(=O)N[C@@H](CCCNC(=N)N)C(=O)N1CCC[C@H]1C(=O)NCC(=O)N[C@@H](CCSC)C(=O)N[C@@H](CC(C)C)C(=O)N[C@@H](CC(=O)O)C(=O)N[C@@H](Cc1ccccc1)C(=O)N[C@H](C(=O)O)[C@@H](C)O)[C@@H](C)O)[C@@H](C)CC)C(C)C)[C@@H](C)O | -3.7% | -1.0
67 | COc1cccc(Cn2c(=O)cnc3cnc(Oc4ccccc4)nc32)c1 | 1.2% | 3.6
68 | C#C[C@]1(OC(C)=O)CCC2C3CCC4=CC(=O)CCC4C3CC[C@]21C (stereo partly specified) | -64.4% | -1.1
69 | N#CCCn1c(=O)c(-c2cc(F)cc(F)c2)nc2cnc(OCc3ccccc3)nc21 | ? | -0.8
70 | CC[C@H](C)[C@H](NC(=O)[C@H](CCC(=O)O)NC(=O)[C@H](CO)NC(=O)[C@@H](NC(=O)[C@H](C)N)C(C)C)C(=O)N[C@@H](CCC(N)=O)C(=O)N[C@@H](CC(C)C)C(=O)N[C@@H](CCSC)C(=O)N[C@@H](Cc1cnc[nH]1)C(=O)N[C@@H](CC(N)=O)C(=O)N[C@@H](CC(C)C)C(=O)NCC(=O)N[C@@H](CCCCN)C(=O)N[C@@H](Cc1cnc[nH]1)C(=O)N[C@@H](CC(C)C)C(=O)N[C@@H](C)C(=O)N[C@@H](CO)C(=O)N[C@H](C(=O)N[C@@H](CCC(=O)O)C(=O)N[C@@H](CCCNC(=N)N)C(=O)N[C@@H](CCSC)C(=O)N[C@@H](CCC(N)=O)C(=O)N[C@@H](Cc1c[nH]c2ccccc12)C(=O)N[C@@H](CC(C)C)C(=O)N[C@@H](CCCNC(=N)N)C(=O)N[C@@H](CCCCN)C(=O)N[C@@H](CCCCN)C(=O)N[C@@H](CC(C)C)C(=O)N[C@@H](CCC(N)=O)C(=O)N[C@@H](CC(=O)O)C(=O)N[C@H](C(=O)N[C@@H](Cc1cnc[nH]1)C(=O)N[C@@H](CC(N)=O)C(=O)N[C@@H](Cc1ccccc1)C(=O)O)C(C)C)C(C)C | -10.5% | 0.6
71 | O=C(Oc1ccccc1)N1CCC2(CC1)CN(c1ccccc1)C2 | -7.7% | -2.3
72 | CC(=O)Oc1c(C)cccc1C(=O)O | 5.9% | -0.4

These rows are one share of the data; the hit share may differ from the screen's.
